# ALR inh = blocks human ALR sulfhydryl oxidase activity | inhibition, % (no concentration beside the values) | purified ALR, DTT oxidation, H2O2 HRP-luminol luminescence | AID 485317 | P55789 | 290,000 tested, 3.8% active;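 active means mean and each replicate at 75% or more; inconclusive means only one of the two met; inactive means neither met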;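 further: stock transfer was 7.5 nL into about 7.5 µL; 0% = neutral wells and 100% = wells with inactivated enzyme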
# Target sequence (P55789 whole entry, looked up): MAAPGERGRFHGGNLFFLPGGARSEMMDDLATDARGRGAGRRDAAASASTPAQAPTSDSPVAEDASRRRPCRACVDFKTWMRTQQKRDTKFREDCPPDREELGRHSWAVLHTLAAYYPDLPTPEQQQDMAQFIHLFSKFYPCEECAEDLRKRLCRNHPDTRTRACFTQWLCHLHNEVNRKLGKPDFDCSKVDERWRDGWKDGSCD
# Ecoli rRNA inh = selective bacterial rRNA inhibition in E. coli | E. coli WT GFP vs humanized-ribosome RFP mutants, fluorescence, 24 h; active compounds read low; DMSO median 0, no signal -100 | GFP signal change (wild-type ribosome), % (test concentration not listed) | 350,000 tested, 1.6% active;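 active means significant combined selectivity score with lowered wild-type GFP, culture density cut under 30%, mutant RFP and density less affected; inactive means any of these conditions unmet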; further: one replicate is shown; some compounds called inactive have numbers as strong as hits
# RanGTP-Imp inh = inhibitors of RanGTP-importin-beta interaction, primary screen, biochemical, FRET, CFP-Ran, YFP-importin-beta, homogeneous. cell-free CFP-Ran/YFP-importin-beta FRET ratio. 300,000 tested, 1.1% active. AID 2216. inhibition, % (test concentration not listed);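 active means most replicates above 15%; inconclusive means exactly half above 15%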;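 further: 0% = DMSO wells and 100% = Ran loaded with GDP instead of GTP; wells of about 40 µL received 100 nL stock; the first replicate is given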
# Beta cell apopt = beta cell apoptosis inhibition. INS-1E cytokine-induced death, ATP luminescence, 48 h; percent of positive-control rescue, neutral wells zero. protection from apoptosis, % (test concentration not listed). 300,000 tested, 0.8% active;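 active means all replicates at 75% or more, or half of them and the mean; inconclusive means half reach 75% but not the mean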;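 further: 0% = cytokine-treated negative control wells and 100% = positive control rescue; higher means more ATP so stronger rescue from cytokine killing; wells of about 40 µL received 100 nL stock; the first replicate is given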
# AF4-AF9 inh = blocks AF4 peptide binding to human AF9 | P42568 | AlphaScreen, biotin-AF4 peptide binding to FLAG-AF9 | inhibition, % at 10 µM | 350,000 tested, 0.47% active | AID 651704;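 active means every replicate reaching a set inhibition limit, whatever the replicate mean, cut at about 25% in these data; inconclusive means mean inhibition reaches that limit but some replicates miss it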;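 further: 0% = plate neutral control median and 100% = total signal loss; the record names both 10 and 1 µM as test concentration; the first replicate is given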
# Target sequence (P42568 whole entry, looked up): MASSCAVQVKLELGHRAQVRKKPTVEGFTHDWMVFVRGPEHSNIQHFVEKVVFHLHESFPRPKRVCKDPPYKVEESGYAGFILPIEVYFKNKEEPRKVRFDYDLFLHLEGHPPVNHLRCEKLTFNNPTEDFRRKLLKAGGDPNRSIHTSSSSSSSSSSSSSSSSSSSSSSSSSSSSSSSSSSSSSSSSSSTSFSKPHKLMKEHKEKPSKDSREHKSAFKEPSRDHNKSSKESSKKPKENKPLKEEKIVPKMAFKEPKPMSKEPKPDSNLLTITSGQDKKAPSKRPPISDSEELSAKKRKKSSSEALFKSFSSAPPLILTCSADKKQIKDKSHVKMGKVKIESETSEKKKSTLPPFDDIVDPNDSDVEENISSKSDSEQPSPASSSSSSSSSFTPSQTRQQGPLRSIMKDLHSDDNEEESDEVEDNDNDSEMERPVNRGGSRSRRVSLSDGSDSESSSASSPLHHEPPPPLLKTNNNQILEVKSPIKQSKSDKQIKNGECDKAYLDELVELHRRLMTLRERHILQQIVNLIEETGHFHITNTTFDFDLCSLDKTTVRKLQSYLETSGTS
# FGF22 binding = shifts melting point of recombinant human FGF22 | Q9HCT0 | recombinant FGF22 thermal shift, SYPRO orange fluorescence; percent of sucrose octasulfate shift, DMSO zero | calls only at 9.99 µM | 340,000 tested, 1.5% active | AID 651658;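 active means melting point raised past a set limit in the mean and every replicate; inconclusive means no clear call; three in four hits are not shown here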
# Target sequence (Q9HCT0 whole entry, looked up): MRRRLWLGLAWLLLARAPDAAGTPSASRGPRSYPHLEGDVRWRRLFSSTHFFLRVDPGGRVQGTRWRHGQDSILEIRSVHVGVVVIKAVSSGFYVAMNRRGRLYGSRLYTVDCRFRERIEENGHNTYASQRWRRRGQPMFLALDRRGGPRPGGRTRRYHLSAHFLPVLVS
# Calb FLC = affects C. albicans growth with fluconazole. growth inhibition, % (concentration not given with the values). AID 1979. C. albicans CaCi-2 (fluconazole-resistant clinical isolate) + fluconazole, Alamar Blue growth, 48 h. 300,000 tested, 0.57% active;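 active means most replicates above 75%; inconclusive means exactly half above 75%; inactive means most below 75%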;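 further: all wells also contain fluconazole at 8 µg/ml as a sub-toxic cotreatment; 0% = median of DMSO wells and 100% = median of geldanamycin control wells; wells of about 8 µL received 7.5 nL stock; the first replicate is given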
# T cruzi repl = T. cruzi replication inhibition | 300,000 tested, 1.4% active | T. cruzi beta-gal in NIH3T3, luminescence, 90 h | inhibition, % (concentration not given with the values);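 active means mean inhibition across valid replicates above about 55%, limit read from the data; inconclusive means mean below that limit but half or more replicates reach it; inactive means mean below it, under half of replicates reach it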;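 further: signal also drops with host cell toxicity which is not excluded here; 0% = plate median of DMSO wells and 100% = zero luminescence signal; higher percent means less beta-gal luminescence so fewer parasites; stock transfer was 50 nL into about 50 µL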
# Ecoli rRNA inh OD600 = also measured in Ecoli rRNA inh; calls as there; OD600 change, %; measured here: OD600 growth;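 optical density of the mix in the first replicate; 0 = DMSO median and -100 = no signal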
# Ecoli rRNA inh RFP = also measured in Ecoli rRNA inh; calls as there; RFP signal change, %; measured here: RFP humanized mutant strains;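 first replicate; 0 = DMSO median and -100 = no signal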
# * marks the source's active call; other numbers are inactive results; i = inactive; ? = inconclusive; . = no result given; + = active, no number. Some of the compounds tested; the hit share may differ from the screen's.
Structure	ALR inh	Ecoli rRNA inh	Ecoli rRNA inh OD600	Ecoli rRNA inh RFP	RanGTP-Imp inh	Beta cell apopt	AF4-AF9 inh	FGF22 binding	Calb FLC	T cruzi repl
COC(=O)c1cccc(-c2noc(-c3ccccc3F)n2)c1	-10	13	19	-1.7	.	-2	-23	i	.	.
COc1cc(C(=O)OCCc2c(C)nc3nc[nH]n3c2=O)cc(OC)c1OC	-1	-8	-9	-3.4	-0.7	-13	-1.0	i	0	1
Cc1ccc(NC2CCCN(C(=O)CCCN3CCCCC3=O)C2)cc1C (stereo not drawn)	99*	5	4	-0.9	3.4	2	-7.8	i	10	14
Cc1c(CCO)c(=O)n(-c2ccccc2)n1S(=O)(=O)c1ccc([N+](=O)[O-])cc1	16	9	11	3.9	4.2	.	-1.3	.	-37	-14
COc1cc(C(=O)OCC(=O)Nc2ccc(C)cc2)cc(OC)c1OC	-12	8	14	0.7	-3.4	-1	-0.7	i	5	-1
CC(=O)N1c2ccc(S(=O)(=O)N3CCC(C(=O)NCc4ccc(F)cc4)CC3)cc2CC1C (stereo not drawn)	2	-1	-2	0.4	-1.4	3	0.5	+	1	-10
COc1ccccc1N1CCN(c2nc3ccccc3nc2C(C#N)C(=O)OC(C)C)CC1 (stereo not drawn)	-6	.	.	.	6.5	10	.	.	12	43
CCc1nn(-c2cc(Oc3ccccc3)nc(-c3ccccc3)n2)c(N)c1C#N	0	.	.	.	1.4	0	.	.	-8	-8
O=C(CN(Cc1ccccc1C(F)(F)F)C(=O)CNC(=O)c1ccco1)NC1CCCC1	-2	.	.	.	-4.3	.	.	.	-5	-12
COc1ccc(COC(=O)C2=C(C)NC(=O)NC2c2ccccc2OC(C)C)cc1 (stereo not drawn)	-7	-23	-25	-1.3	-2.6	-3	-3.7	i	11	10
Cc1ccc(C)c(N(C)C(=O)COc2cc(=O)n(C)c3ccccc23)c1	3	-7	-11	-1.1	2.3	2	-1.5	i	-6	7
O=C(CC(=O)NC1CCCCC1)N/N=C/c1ccccc1F	-2	32	28	-2.0	-2.8	4	-3.9	i	1	4
Brc1ccc(-c2n(-c3ccccn3)c3ccccc3[n+]2-c2ccccn2)cc1	-2	-10	-2	-7.5	-2.1	21	-3.7	i	-2	15
COc1ccc(/C=C/c2nc(-c3ccccc3O)n[nH]2)cc1	10	.	.	.	-3.8	0	.	.	-15	-13
COc1cccc(-c2cccc(NC(=O)C3CCN(Cc4cnn(C)c4)CC3)c2)c1	-2	7	12	-0.2	-4.7	.	-15	i	-5	-5
COc1ccc(CN2C(=O)C(C)=C(C)C2OC)cc1 (stereo not drawn)	-1	13	1	6.9	4.1	-1	-2.7	i	-9	-10
Cc1ccc2nc3sc(C(=O)N4CCOCC4)c(N)c3cc2c1	.	.	.	.	0.2	-6	.	.	-1	12
CC(Cl)C(=O)NC(=O)NC12CC3CC(CC(C3)C1)C2 (stereo not drawn)	-9	.	.	.	?	-6	.	.	1	-15
CCOC(=O)c1c(C)nc2cc(C)ccn12	-22	.	.	.	?	-7	.	.	-4	2
O=C(NC1CCCC1)c1ccc2c(c1)S(=O)(=O)c1ccccc1C2=O	-13	3	4	2.5	3.7	1	14	i	-6	-12
O=C(CCC(=O)c1ccccc1)Nc1ccccc1OC(F)F	-7	-10	-27	3.9	-2.4	-4	-3.0	i	-8	-8
CCC(C)Sc1nnc(CNS(=O)(=O)c2ccc(F)cc2)n1C (stereo not drawn)	-5	9	10	-0.8	-1.3	-2	-2.2	i	5	-14
COCCCNC(=O)c1ccc(-c2nc3ccccc3nc2-c2ccccc2)cc1	-9	-32*	-2.1*	-0.3*	1.6	.	1.8	i	7	10
O=C1CC(N2CCN(c3ccc(C(=O)c4ccc(F)cc4)cc3)CC2)C(=O)N1 (stereo not drawn)	.	.	.	.	4.9	-1	.	.	3	0
COc1ccc(C2NC(=O)c3sc(=S)n(-c4ccccc4)c3N2)cc1 (stereo not drawn)	64	.	.	.	?	-5	.	.	-3	-5
COc1ccc2[nH]c(=O)c(CN(Cc3cccs3)Cc3nnnn3Cc3ccccc3)cc2c1	-16	.	.	.	?	9	.	.	-6	17
O=C(NNC(=O)C1CCN(Cc2ccc(Cl)c(Cl)c2)CC1)c1cccs1	-2	5	4	-1.7	-0.9	2	-1.4	.	3	15
COc1ccccc1/C=C/C(=O)Nc1ccc(N2CCOCC2)cc1	14	-2	10	-3.3	-3.5	-2	-4.0	i	-9	-8
COc1ccccc1C(=O)NCCC(=O)N1CCCCC1	-15	10	13	2.9	1.3	-6	-2.7	i	-18	-2
CCn1ncc([N+](=O)[O-])c1C(=O)n1nc(C)cc1C	0	-7	-5	2.7	?	-3	-4.7	i	3	7
CC(C)c1nnc(NC(=O)c2cccc(NC(=O)C(F)(F)F)c2)s1	-35	-4	-2	0.6	?	-2	-2.7	i	-11	-8
Cc1onc(-c2ccccc2Cl)c1C(=O)Nc1cccc(S(=O)(=O)NC2=NCCC2)c1	-10	-3	0	-0.7	0.1	-1	8.0	i	-2	6
COc1ccc(C2C3=C(N=C4SCC(=O)N42)c2ccccc2CC3)cc1 (stereo not drawn)	-11	.	.	.	0.4	7	.	.	50	18
CCOC(=O)N1CCN(C(=S)NC)CC1	-3	.	.	.	-2.0	2	.	.	-1	-19
CC(=O)N1CCN(Cc2ccc(Br)s2)CC1	-12	10	9	-12	-0.9	-3	1.4	i	-1	-3
O=C(Nc1ccc(-c2nc3cccnc3s2)cc1)c1ccc(Cl)nc1	0	12	6	1.1	?	-4	-7.2	i	2	5
Cc1nn(C(=O)c2ccco2)c(C)c1Sc1ccc(Cl)cc1	-7	.	.	.	1.1	.	.	.	18	-11
CC1(C)CC2CC(C)(CN2C(=O)COC(=O)c2cccc([N+](=O)[O-])c2)C1 (stereo not drawn)	-4	-6	5	0.7	.	-11	-2.3	.	.	.
COc1cccc(C2N(c3cccc(Cl)c3)C(=O)C3CCCN32)c1OC (stereo not drawn)	-11	-7	-3	-2.2	5.2	-3	1.1	i	-2	-8
Cc1ccc(CSCC(=O)N(C)CC(=O)Nc2ccc(Br)cc2C)cc1	-1	-1	-1	0.1	0.7	2	-3.9	i	-4	3
CC(C)=CCN1CCN(Cc2cc(C(C)C)n[nH]2)CC1CCO (stereo not drawn)	-17	-5	-2	-1.5	-1.3	3	-3.9	i	1	15
CC1(C)CC(N2CCOCC2)=CC(=[N+]2CCOCC2)C1	-1	18	8	-5.5	-1.8	5	-4.7	i	-7	9
N#Cc1c(-c2ccccc2)nc(-c2ccccc2)[nH]c1=O	4	.	.	.	0.6	6	.	.	10	2
COc1cc(OC)c(C(=O)O/N=C(\N)c2ccc(C)cc2)cc1OC	-18	7	2	-0.7	-0.9	-8	1.6	i	39	32
COc1ccc2oc(=O)c(C(=O)NCc3ccco3)cc2c1	.	-3	-10	-7.9	?	2	2.8	i	-3	-7
COc1ccccc1NC(=O)Nc1nc(C(C)(C)C)cs1	7	-13	5	-0.6	3.3	5	-0.1	i	-20	22
CCC(=O)N(Cc1cc2cc(C)c(C)cc2[nH]c1=O)C1CCCCC1	-7	.	.	.	1.5	-5	.	.	4	8
NCCc1nnc(SCc2ccccc2Cl)o1	-9	2	4	-0.5	0.6	2	3.2	i	-2	-11
CCOc1ccccc1-n1nnnc1SCC(=O)NC(=O)NCc1ccco1	.	.	.	.	1.2	-7	.	.	2	-7
CCN1CCN(c2nc3c(c(=O)n(C)c(=O)n3C)n2Cc2cccc3ccccc23)CC1	-19	.	.	.	2.6	.	.	.	15	-9
CCN1C(=O)c2cccc3c(S(=O)(=O)NCCCN4CCOCC4)ccc1c23	-35	.	.	.	-3.5	1	.	.	-9	4
COCCN(C(=O)COC(=O)CCC(=O)c1cccs1)c1c(N)n(Cc2ccccc2)c(=O)[nH]c1=O	-4	9	9	-1.5	1.0	-3	1.3	.	-10	-18
N#Cc1ccc(C2=CC(=O)C[C@H](c3ccc(Cl)cc3)C2)cc1	-6	-11	-25	-6.4	.	4	8.1	i	.	.
O=C(c1ccc(S(=O)(=O)Nc2ccccc2F)cc1)N1CCC1	-2	4	4	-1.8	0.2	-4	8.3	i	-7	-7
COCCNS(=O)(=O)c1ccc(OCC(=O)N2CCc3ccccc3C2)c(Cl)c1	-13	-12	-14	-1.8	0.3	.	-1.6	i	0	4
O=C(CCS(=O)(=O)c1ccccc1Cl)Nc1ccc(S(=O)(=O)Nc2ncccn2)cc1	.	18	3	-1.3	3.6	0	-15	i	-5	1
O=C(CN1C(=O)NC2(CCCCCC2)C1=O)Nc1cccc(F)c1	1	1	2	-1.0	.	1	1.1	i	.	.
CCOC(=O)C1=C(C)NC(=S)NC1c1ccc(C)s1 (stereo not drawn)	.	0	9	7.5	0.2	4	-9.0	i	-12	-8
NC(=O)C1CCN(C(=O)/C=C/c2ccccc2[N+](=O)[O-])CC1	-2	9	7	-6.0	5.6	-7	-0.2	.	-6	0
CCCS(=O)(=O)N1CCC(C(=O)NCCCOC)CC1	-2	.	.	.	4.9	-7	.	.	2	2

# Continuation:
Structure	ALR inh	Ecoli rRNA inh	Ecoli rRNA inh OD600	Ecoli rRNA inh RFP	RanGTP-Imp inh	Beta cell apopt	AF4-AF9 inh	FGF22 binding	Calb FLC	T cruzi repl
O=C(CN1C(=O)NC2(CCCCCCC2)C1=O)N1CCN(C(=O)c2ccco2)CC1	-11	.	.	.	2.5	-5	.	.	-7	-1
C=CCn1c(SC)nc2sc3c(c2c1=O)CCc1ccccc1-3	-21	.	.	.	-0.6	7	-7.9	i	0	40
O=S(=O)(c1ccc(F)cc1)N1CC2CCCN2c2ccc(C(F)(F)F)cc21 (stereo not drawn)	-16	.	.	.	1.3	15	.	.	-2	16
Cc1ccc(C(=O)NNC(=O)Cn2nnc3ccccc32)cc1	.	-31*	-3.5*	12*	1.9	.	1.8	i	?	-13
O=C(O)c1nn(-c2ccccc2-c2n[nH]c(=O)[nH]c2=O)c(=O)[nH]c1=O	0	.	.	.	6.1	16	.	.	-9	-13
O=C(CSCc1ccccc1)N1CCN(c2ccccc2)CC1	98*	11	6	1.3	-2.0	-1	3.9	i	-4	-8
Cc1cc(C)n(C(=O)C2CCCN2S(=O)(=O)c2ccc(Cl)cc2)n1 (stereo not drawn)	2	.	.	.	-3.2	-4	.	.	-4	-11
COc1ccc(NC(=O)C(OC(=O)c2cnccn2)c2ccccc2)cc1Cl (stereo not drawn)	-4	-9	1	4.5	-2.0	6	2.7	i	-7	-4
O=c1[nH]c2cc(Cl)ccc2n(CCNc2ncc(C(F)(F)F)cc2Cl)c1=O	6	.	.	.	-2.8	-4	.	.	31	11

# Screens from PubChem BioAssay.
